NPYLR7 ag = agonists of mosquito NPYLR7 receptor, primary screen, cell-based, Aedes aegypti, calcium fluorescence, mosquito biting behavior | Aedes aegypti neuropeptide Y-like receptor 7 (NPYLR7) | hit rate 0.15% among 270,000 | activation, % at 10 µM | AID 1259423, 2018 | HEK293T NPYLR7/Galpha15, GCaMP6s calcium fluorescence; in the data active means activation above about 40%;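 further: 0% = vehicle and 100% = reference agonist at the receptor; some compounds past the cut are filed as inactive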
NPYLR7 ag max-min = second read-out of NPYLR7 ag, no call of its own (marks repeat the call); activation, %; measured here: Max-Min RFU normalised activation; some inactives read as strong as hits;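 span of the calcium signal over five minutes; 0% = vehicle and 100% = native peptide agonist; compound fluorescence can raise it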
The depositor's hits bear a star. This is a subset; the hit share may differ from the screen's.

[1] OC(c1cc(F)cc(Cl)c1)c1ncc(-c2ccc3ccccc3c2)[nH]1 (stereo not drawn)
[2] O=C(NCCc1cccc(Cl)c1)c1ccc(-c2cc(-c3cccc(C(F)(F)F)c3)n[nH]2)cc1
[3] O=C(O)CCc1ccc(S(=O)(=O)N2CCc3ccc(F)cc32)cc1
[4] O=C(c1ccc(F)cc1)c1c[nH]c2c(F)cc(F)cc2c1=O
[5] Cc1ccc(CN2CCC2(C)C(=O)Nc2cccc(Br)c2C)cc1 (stereo not drawn)
[6] COC(=O)c1cc(C(C)(C)C)sc1NC(=O)N1CCOCC1
[7] CCOC(=O)C1CCCN(C(=O)c2c(C)c(C)c(C)n2Cc2cccc(C)c2)C1 (stereo not drawn)
[8] CS(=O)(=O)N1CCc2cc(C(=O)CSc3nnnn3C3CCCC3)ccc21
[9] CN(Cc1cccnc1)[C@H]1[C@H](O)C[C@@H]2CC(C)(C)OC[C@]21O
[10] Cc1nc2c(c(=O)c3ccccc3n2C)c(=O)n1Cc1ccco1
Screen / compound no.	1	2	3	4	5	6	7	8	9	10
NPYLR7 ag	0	-1	12	-1	0	3	15	1	1	6
NPYLR7 ag max-min	-4	7	9	1	-2	1	18	25	8	4

Next part; the last four above are carried over.
[7] CCOC(=O)C1CCCN(C(=O)c2c(C)c(C)c(C)n2Cc2cccc(C)c2)C1 (stereo not drawn)
[8] CS(=O)(=O)N1CCc2cc(C(=O)CSc3nnnn3C3CCCC3)ccc21
[9] CN(Cc1cccnc1)[C@H]1[C@H](O)C[C@@H]2CC(C)(C)OC[C@]21O
[10] Cc1nc2c(c(=O)c3ccccc3n2C)c(=O)n1Cc1ccco1
[11] O=C(OCc1cc(-c2ccc3c(c2)OCO3)on1)c1cc2ccccc2oc1=O
[12] O=c1n(CCN(Cc2ccc3c(c2)OCO3)C2CCCC2)nc2ccccn12
[13] COCCN(Cc1nccn1Cc1ccc(Cl)cc1Cl)C(=O)c1ccccc1F
[14] O=C(CC1CCCO1)OC(c1ccccc1)c1ccncc1 (stereo not drawn)
[15] Cc1ccccc1C(=O)N1CCC(C(=O)OCC(=O)Nc2cccc(C#N)c2)CC1
[16] COCCN(CC(=O)Nc1cc(C(C)(C)C)nn1-c1ccccc1Cl)C(=O)c1cc(C(F)(F)F)cc(C(F)(F)F)c1
[17] COCCCN(Cc1ccc(OS(C)(=O)=O)cc1)C(=O)Nc1ccc(Br)cc1
[18] O=C(CSc1ncc(-c2ccc(F)cc2)[nH]1)N1CCc2ccccc2C1
[19] COc1ccc(CCNC(=O)c2cc(-c3ccccc3Cl)nn2-c2ccc(C)cc2)cc1OC
[20] Cc1ccc(NC(=O)N(CC(=O)N(Cc2ccc3c(c2)OCO3)Cc2ccco2)CC2CCCO2)cc1Cl (stereo not drawn)
Screen / compound no.	7	8	9	10	11	12	13	14	15	16	17	18	19	20
NPYLR7 ag	15	1	1	6	0	2	19	8	-1	-4	-5	1	-2	-4
NPYLR7 ag max-min	18	25	8	4	-1	0	17	5	-3	6	-4	6	4	0

[21] O=C(NCc1cccs1)c1cncn1-c1ccc(-c2ccc(F)c(F)c2)cc1
[22] Cn1ccc(CNC(c2ccccc2)c2ccccc2)cc1=O
[23] COc1cccc(C(=O)NCC(=O)N=Nc2c(O)[nH]c3ccc([N+](=O)[O-])cc23)c1
[24] CN1CCN(c2cc(-c3ccccc3)nc3ncnn23)C(C)(C)C1=O
[25] CC(Cc1ccc2ccccc2c1)NC(=O)N(C)C1CCOCC1 (stereo not drawn)
[26] CN(CCCC(=O)O)C(=O)c1cc2ccccc2s1
[27] N#Cc1ccc(OS(=O)(=O)c2cccs2)cc1
[28] CC(c1ccccc1)n1c(C2CC(=O)N(c3ccccc3)C2)nc2ccccc21 (stereo not drawn)
[29] CCOC(=O)c1c(C)nn(-c2ccc(C(=O)N3CCC(NC(=O)OC(C)(C)C)C3)cc2)c1C (stereo not drawn)
[30] Cc1ccc(-n2nc(-c3ccc(C)c(C)c3)cc2C(=O)NCCN(C)C)c(C)c1
Screen / compound no.	21	22	23	24	25	26	27	28	29	30
NPYLR7 ag	4	-10	0	-3	1	9	9	-1	2	-3
NPYLR7 ag max-min	2	-12	-7	-4	0	2	8	3	0	5

[31] O=C1c2ccc(Br)cc2C(=O)N1CNc1ccc(Cl)cc1
[32] CC(C)CCNC(=O)CCN(c1nc(Cc2ccc(F)cc2)ns1)C(C)C
[33] COCc1c(Br)c(C)nc(OCC(=O)N/N=C\c2cc(Br)c(OC)c(OC)c2)c1C#N
[34] C=CCn1c(N2CCC(C)CC2)nc2c1c(=O)[nH]c(=O)n2C
[35] O=C(NNc1ccnc2cc(Cl)ccc12)c1ccc(=O)[nH]n1
[36] O=C(CN1CSCC1=O)Nc1cc(Cl)ccc1Cl
[37] CCCCNC(=O)C1(C)CCN1C(=O)c1cccc(OC(C)=O)c1C (stereo not drawn)
[38] CCn1c(=O)c2c(nc3n(-c4ccc(Cl)cc4)c(C)cn23)n(C)c1=O
[39] COc1cc(OC)cc(C(=O)N2CCN(C(=O)CCCCSc3nnc(-c4ccc(C)cc4)n3-c3ccccc3)CC2C)c1 (stereo not drawn)
[40] CCOc1ccc(-c2n[nH]c(C)c2-c2ccc(OC)c(OC)c2)c(O)c1
Screen / compound no.	31	32	33	34	35	36	37	38	39	40
NPYLR7 ag	1	9	9	-2	0	5	2	8	-14	4
NPYLR7 ag max-min	0	6	18	-3	21	4	0	0	-12	5

[41] Cc1ccccc1CN1N=NC2C(=O)N(c3ccccc3)C(=O)C21 (stereo not drawn)
[42] CSCCCNC(=O)c1c(C)noc1-c1cccc(C(F)(F)F)c1
[43] Cc1ccc2oc(CN(C(=O)c3cnn(-c4ccccc4)c3C(F)(F)F)C3CCCCC3)nc2c1
[44] CCCCC(CC)C(=O)Nc1cc(C)on1 (stereo not drawn)
[45] CC1(C(=O)NCc2cccc3ccccc23)CCN1Cc1ccc2ccccc2c1 (stereo not drawn)
[46] CCOc1ccc(-c2ccc(SC)nn2)cc1
[47] CCn1ccnc1N1CCN(C(=O)CC23CC4CC(CC(C4)C2)C3)CC1
[48] CC(=O)C1=C(c2ccc3c(c2)CCCC3)N(C(C)=O)n2c(C)nnc2S1
[49] O=C(CCC(=O)N1CC[C@@]2(O)CCCC[C@H]2C1)NC1CCCCCCC1
[50] S=C(NCC1CCCO1)Nc1ccccc1 (stereo not drawn)
Screen / compound no.	41	42	43	44	45	46	47	48	49	50
NPYLR7 ag	5	-3	6	1	3	17	2	1	2	-3
NPYLR7 ag max-min	2	5	10	8	-2	10	8	-3	-5	-5

[51] OC1CCN(c2ccnc(NCCN3CCOCC3)n2)CC1
[52] CN1CCN(C(=O)CCN2C(=O)c3ccccc3C2=O)CC1
[53] CC1CN(c2cc(Cl)nc(SCC(=O)NCc3cccnc3)n2)CCN1C(=O)CCC1CCCC1 (stereo not drawn)
[54] CC(=O)Oc1ccc2oc(-c3ccccc3)c(C(N)=O)c2c1
[55] CCOC(=O)CNC(=O)N1CCC2(CC1)C(=O)N(CC(=O)Nc1cccc(Cl)c1)CN2c1ccccc1
[56] COc1ccc(C(C)C)cc1CN1CCC(N2CCCC2=O)CC1
[57] O=C1CC(c2n[nH]c(Cc3ccccc3)n2)CN1Cc1cccnc1 (stereo not drawn)
[58] COC(=O)C[n+]1cccc(C(C)=O)c1
[59] COCc1ccc(C(=O)N2CCCC(C(=O)c3ccc(SC)cc3)C2)s1 (stereo not drawn)
[60] COc1cc(=O)n(-c2ccccc2C)nc1C(=O)Nc1ccc(OC(F)(F)F)cc1
Screen / compound no.	51	52	53	54	55	56	57	58	59	60
NPYLR7 ag	8	-15	22	1	13	5	-5	-15	17	3
NPYLR7 ag max-min	6	-21	25	5	11	4	-10	-24	0	6

Filtered by structure: the entries above containing a cyano group (3)
[15] Cc1ccccc1C(=O)N1CCC(C(=O)OCC(=O)Nc2cccc(C#N)c2)CC1
[27] N#Cc1ccc(OS(=O)(=O)c2cccs2)cc1
[33] COCc1c(Br)c(C)nc(OCC(=O)N/N=C\c2cc(Br)c(OC)c(OC)c2)c1C#N
Screen / compound no.	15	27	33
NPYLR7 ag	-1	9	9
NPYLR7 ag max-min	-3	8	18

(cont.)
[61] CCC(C(=O)N(Cc1cc(NC(=O)c2ccco2)ccc1N(C)C)CC1CC1)c1ccccc1 (stereo not drawn)
[62] CC(C)c1cc(C(=O)N2CCOC(CCc3ccccc3)C2)no1 (stereo not drawn)
[63] O=C1[C@H]2C[C@H]2C(=O)N1c1ccc2c(c1)N1CCN=C1S2
[64] CC1CCCCN1C(=O)Cn1cnc2scc(-c3ccc(F)cc3)c2c1=O (stereo not drawn)
[65] O=C1c2ccccc2-c2nc3cc(Br)cnc3nc21
[66] CS(=O)(=O)NC1CCN(C2CCC3(CCNCC3)CC2)CC1
[67] FC(F)Oc1ccc(C=NNc2ccc(C(F)(F)F)cn2)cc1
[68] COc1ccc(NC(=O)N2CCN(CC(C)C)C(=O)C2C)cc1Cl (stereo not drawn)
[69] COCC1CCN(C(=O)CN2C(=O)c3ccccc3C2=O)C1 (stereo not drawn)
[70] CSCc1cccc(C(=O)N(C)Cc2cccnc2)c1
Screen / compound no.	61	62	63	64	65	66	67	68	69	70
NPYLR7 ag	-1	-1	9	4	16	-7	5	14	-3	8
NPYLR7 ag max-min	9	-3	2	3	14	-15	5	11	-8	8

[71] Cc1ccc(P(=Nc2ccc([N+](=O)[O-])cc2)(N2CCCC2)N2CCCC2)o1
[72] CCOC(=O)C1=C(C)N=c2s/c(=C\c3ccccc3Cl)c(=O)n2C1c1ccc(OC)cc1 (stereo not drawn)
[73] CSc1cc(C(=O)NCC(CC(C)O)c2ccccc2)ccn1 (stereo not drawn)
[74] Cc1cc(NC(=O)Cc2ccc(F)cc2)n(-c2nc3c(F)cccc3s2)n1
[75] O=C1CN(c2ccc(C(=O)N3CCC(Oc4cccnc4)CC3)cn2)CCN1
[76] CC(C)c1ccc(N(CC(=O)NCCSCc2ccc(Cl)cc2Cl)S(C)(=O)=O)cc1
[77] Cc1noc(CN2CC(C)CN(Cc3nc(C)no3)c3ccccc32)n1
[78] CC(C)C(C)NC(=O)CNC(=O)c1c(Br)nn(C)c1N (stereo not drawn)
[79] COCCN(Cc1cccn1Cc1ccccc1)C(=O)CN(CCC(C)C)C(=O)/C=C/c1ccccc1
[80] CCc1nc2ccc(C(=O)N3CCNC(=O)C3)cn2c1N(C)Cc1ccc(N(C)C)cc1
Screen / compound no.	71	72	73	74	75	76	77	78	79	80
NPYLR7 ag	5	5	2	-10	7	5	3	1	17	4
NPYLR7 ag max-min	3	17	2	-14	-3	4	-6	7	18	-7

[81] CNC(=O)c1ccc(OC)c(NCc2noc(-c3ccsc3)n2)c1
[82] O=C(Nc1nc(-c2cccc(Cl)c2)ns1)C1CC1c1cccc(F)c1 (stereo not drawn)
[83] CCOc1ncccc1CN1CCC(C(=O)Nc2cccc3c2CCCC3)CC1
[84] Cn1ccnc1-c1ccc(NCC2COc3ccccc3O2)nn1 (stereo not drawn)
[85] Cc1cc2ncc(-c3ccccc3)nc2cc1C
[86] CCc1ccccc1NC(=O)c1c(N)c(C(=O)c2ccc(OC)cc2)n2ccccc12
[87] CC(C)NC(=O)c1ccccc1-c1ccnc2[nH]ccc12
[88] COCCn1c(C)cn2c3c(=O)n(Cc4ccc(F)cc4)c(=O)n(C)c3nc12
Screen / compound no.	81	82	83	84	85	86	87	88
NPYLR7 ag	1	-5	8	6	4	0	-1	5
NPYLR7 ag max-min	4	129	3	3	9	-8	-3	13

Ordered by SMILES length (highest first): part of the list above.
[49] O=C(CCC(=O)N1CC[C@@]2(O)CCCC[C@H]2C1)NC1CCCCCCC1
[13] COCCN(Cc1nccn1Cc1ccc(Cl)cc1Cl)C(=O)c1ccccc1F
[24] CN1CCN(c2cc(-c3ccccc3)nc3ncnn23)C(C)(C)C1=O
Screen / compound no.	49	13	24
NPYLR7 ag	2	19	-3
NPYLR7 ag max-min	-5	17	-4

Assay outcomes from PubChem.
